# From PubChem
# Bfl-1 A1 inh – caspase 3/7 activation in MEF A1-2A-BIM cells, primary screen, A1 inhibitor project, cell-based, luminescence, HTS; 330,000 tested, 0.066% active; Caspase-Glo 3/7 luminescence, 3 h; percent of clofoctol response, vehicle zero; caspase activation, % (concentration not given with the values);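 active = over half of replicate activation scores above 10%, or exactly half above 10 with the replicate mean above 10; inconclusive = replicate mean below 10 yet half the replicates above 10; inactive = over half of replicates below 10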;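 note: wells of about 30 µL received 50 nL stock; many hits fall short of the cut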
# Beta apoptosis – inhibitors of cytokine-induced beta cell apoptosis, primary screen, luminescence | INS-1E cytokine-induced death, ATP luminescence, 48 h; percent of positive-control rescue, neutral wells zero | protection from apoptosis, % (concentration not given with the values) | 300,000 tested, 0.8% active | AID 435005, 2010;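 active = all replicates at 75% or more, or half of them and the mean; inconclusive = half reach 75% but not the mean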;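 note: 0% = cytokine-treated negative control wells and 100% = positive control rescue; higher means more ATP so stronger rescue from cytokine killing; wells of about 40 µL received 100 nL stock; the first replicate is given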
# rRNA inh HTS – reduced GFP signal of wild-type E. coli, primary screen, bacterial rRNA inhibitor project, GFP/RFP fluorescence, OD600, single point. E. coli WT GFP vs humanized-ribosome RFP mutants, 24 h; stronger effect = lower value; DMSO median 0, no signal -100. GFP signal change (wild-type ribosome), % (no concentration beside the values). 350,000 tested, 1.6% active. AID 720706, 2013;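 active = significant combined selectivity score with lowered wild-type GFP, culture density cut under 30%, mutant RFP and density less affected; inactive = any of these conditions unmet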; note: one replicate is shown; some compounds called inactive have numbers as strong as hits
# Calb FLC – C. albicans growth inhibition with fluconazole, primary screen, CaCi-2 strain, Alamar Blue fluorescence. C. albicans CaCi-2 (fluconazole-resistant clinical isolate) + fluconazole, 48 h. growth inhibition, % (concentration not given with the values). 300,000 tested, 0.57% active;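 active = most replicates above 75%; inconclusive = exactly half above 75%; inactive = most below 75%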;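 note: all wells also contain fluconazole at 8 µg/ml as a sub-toxic cotreatment; 0% = median of DMSO wells and 100% = median of geldanamycin control wells; wells of about 8 µL received 7.5 nL stock; the first replicate is given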
# T cruzi inh – inhibitors of intracellular T. cruzi growth, primary screen, luminescence, NIH3T3 host cells; T. cruzi beta-gal in NIH3T3, 90 h; inhibition, % (test concentration not listed); 300,000 tested, 1.4% active; AID 1885, 2009;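 active = mean inhibition across valid replicates above about 55%, limit read from the data; inconclusive = mean below that limit but half or more replicates reach it; inactive = mean below it, under half of replicates reach it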;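 note: signal also drops with host cell toxicity which is not excluded here; 0% = plate median of DMSO wells and 100% = zero luminescence signal; higher percent means less beta-gal luminescence so fewer parasites; stock transfer was 50 nL into about 50 µL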
# RanGTP-Imp inh – inhibitors of RanGTP-importin-beta interaction, primary screen, biochemical, FRET, CFP-Ran, YFP-importin-beta, homogeneous. Ran GTPase (GTP-bound) - importin-beta complex. cell-free CFP-Ran/YFP-importin-beta FRET ratio. inhibition, % (concentration not given with the values). 300,000 tested, 1.1% active;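 active = most replicates above 15%; inconclusive = exactly half above 15%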;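 note: 0% = DMSO wells and 100% = Ran loaded with GDP instead of GTP; wells of about 40 µL received 100 nL stock; the first replicate is given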
# MLL AF4-AF9 inh – inhibitors of AF4 peptide binding to AF9, primary screen, biochemical, AlphaScreen, biotin-AF4 peptide, FLAG-AF9, single point | 350,000 tested, 0.47% active | Protein AF-9 (Homo sapiens), P42568 | inhibition, % at 10 µM;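 active = every replicate reaching a set inhibition limit, whatever the replicate mean, cut at about 25% in these data; inconclusive = mean inhibition reaches that limit but some replicates miss it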;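 note: 0% = plate neutral control median and 100% = total signal loss; the record names both 10 and 1 µM as test concentration; the first replicate is given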
# Target sequence (P42568 whole entry, looked up): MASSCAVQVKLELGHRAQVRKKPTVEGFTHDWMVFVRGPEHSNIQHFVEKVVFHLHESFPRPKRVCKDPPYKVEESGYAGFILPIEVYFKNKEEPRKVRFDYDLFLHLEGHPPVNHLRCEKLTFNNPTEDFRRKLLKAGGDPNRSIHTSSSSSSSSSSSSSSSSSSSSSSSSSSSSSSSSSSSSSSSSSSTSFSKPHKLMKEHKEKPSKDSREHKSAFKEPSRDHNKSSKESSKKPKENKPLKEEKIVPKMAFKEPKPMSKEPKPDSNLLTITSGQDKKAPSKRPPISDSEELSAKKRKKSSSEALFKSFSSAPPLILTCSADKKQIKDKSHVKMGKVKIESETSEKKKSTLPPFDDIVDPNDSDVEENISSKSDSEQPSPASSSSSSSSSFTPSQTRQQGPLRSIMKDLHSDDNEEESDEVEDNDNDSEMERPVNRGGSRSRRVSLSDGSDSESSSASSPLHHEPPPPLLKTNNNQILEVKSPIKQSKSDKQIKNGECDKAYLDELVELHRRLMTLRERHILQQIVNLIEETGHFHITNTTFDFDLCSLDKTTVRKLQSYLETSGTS
# Vif TR-FRET – inhibitors of Vif binding to APOBEC3G peptide, primary screen, biochemical, TR-FRET, GST-Vif 1-94, biotin-A3G peptide, dose response retest (AID 1117319); 260,000 tested, 0.57% active; TR-FRET GST-Vif / biotin-A3G peptide binding; higher % means a stronger effect; test concentration not given here; strong numbers were not always called active; Virion infectivity factor (Human immunodeficiency virus type 1 group M subtype B (isolate …; inhibition, %, or IC50 in µM where a hit was titrated;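 active = above the screen mean plus three standard deviations and confirmed in dose response; inconclusive = results disagree or hit not tested in dose response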;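 note: Vif residues 1-94 fused to GST binding biotinylated APOBEC3G peptide 110-148; 0% = full assay without inhibitor and 100% = GST in place of GST-Vif; retest series ran down from 100 µM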
# rRNA inh HTS OD600 – recorded beside rRNA inh HTS, whose call it bears; OD600 change, %; measured here: OD600 growth;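 optical density of the mix in the first replicate; 0 = DMSO median and -100 = no signal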
# rRNA inh HTS RFP – second read-out of rRNA inh HTS, no call of its own (marks repeat the call); RFP signal change, %; measured here: RFP humanized mutant strains;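 first replicate; 0 = DMSO median and -100 = no signal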
# Active calls of the source: *; ? = inconclusive; nt = not tested or not shown; & = joins results of further samples. This is a subset (hit frequency here may not be typical).
SMILES,Bfl-1 A1 inh,Beta apoptosis,rRNA inh HTS,rRNA inh HTS OD600,rRNA inh HTS RFP,Calb FLC,T cruzi inh,RanGTP-Imp inh,MLL AF4-AF9 inh,Vif TR-FRET
Cn1cc(C=C2C(=O)NC(=O)NC2=O)c2ccccc21,1.1,-3,16,16,2.9,8,-7,3.6,0.8,nt
CN1CCN(Cc2cn(C)c3ccccc23)CC1CCO (stereo not drawn),-0.2,nt,1,3,-2.9,-2,33,-1.0,5.5,nt
CC(=O)Nc1ccc([As](=O)(O)c2ccc([N+](=O)[O-])cc2)cc1,0.1,-6,11,6,-1.9,6,-5,2.1,3.9,?
O=c1[nH]c(=S)n(Cc2ccc(F)cc2)c(O)c1C=NCc1ccc2c(c1)OCO2,0.8,-11,20,16,10,-5,-5,1.0,-0.8,-28%
O=c1[nH]c(=S)n(CCC2=CCCCC2)c(O)c1C=NCc1cccnc1,-0.6,-1,nt,nt,nt,-15,-14,0.8,nt,-11%
COc1ccccc1-n1c(-c2ccccc2F)nc2ccccc2c1=O,1.0,nt,nt,nt,nt,-2,7,-0.5,1.3,nt
COc1ccc(CC2C(=O)NC(=O)N(c3ccccc3)C2=O)c(OC)c1 (stereo not drawn),0.2,4,4,3,-1.5,6,-12,2.6,1.0,-2%&10%
Cc1cc(OCc2nn[nH]n2)c2c3c(c(=O)oc2c1)CCC3,0.3,3,nt,nt,nt,27,-9,-0.9,nt,33%
Cc1ccc(OCC(=O)N2CCN(C3CCC(c4ccccc4)CC3)CC2)cc1 (stereo not drawn),0.6,-4,-30,-30,0.3,12,41,2.1,1.4,7%
CC(=O)c1c(C)n(CCCOC(C)C)c2ccc(O)cc12,0.2,-1,nt,nt,nt,15,6,1.6,nt,5%
COC(=O)C1=C(c2ccc(F)cc2OCc2ccccc2)C[C@@H]2CC[C@H]1N2C(=O)N1CCCC1,0.3,-4,-37,-43,-4.9,nt,nt,nt,7.4,nt
O=C(CCC(=O)N1CC2C[C@@H](C1)Cn1c2cccc1=O)NCCc1ccccc1,1.5,nt,6,8,-2.2,-1,-13,3.5,-1.9,nt

# Full records as entered above. Order of values: Bfl-1 A1 inh	Beta apoptosis	rRNA inh HTS	rRNA inh HTS OD600	rRNA inh HTS RFP	Calb FLC	T cruzi inh	RanGTP-Imp inh	MLL AF4-AF9 inh	Vif TR-FRET
# Shown for O=c1[nH]c(=S)n(Cc2ccc(F)cc2)c(O)c1C=NCc1ccc2c(c1)OCO2 = 0.8	-11	20	16	10	-5	-5	1.0	-0.8	-28%
# Shown for Cc1ccc(OCC(=O)N2CCN(C3CCC(c4ccccc4)CC3)CC2)cc1 (stereo not drawn) = 0.6	-4	-30	-30	0.3	12	41	2.1	1.4	7%
# Shown for Cn1cc(C=C2C(=O)NC(=O)NC2=O)c2ccccc21 = 1.1	-3	16	16	2.9	8	-7	3.6	0.8	nt
# Shown for CC(=O)Nc1ccc([As](=O)(O)c2ccc([N+](=O)[O-])cc2)cc1 = 0.1	-6	11	6	-1.9	6	-5	2.1	3.9	?
# Shown for COc1ccc(CC2C(=O)NC(=O)N(c3ccccc3)C2=O)c(OC)c1 (stereo not drawn) = 0.2	4	4	3	-1.5	6	-12	2.6	1.0	-2%&10%

# (cont.)
SMILES,Bfl-1 A1 inh,Beta apoptosis,rRNA inh HTS,rRNA inh HTS OD600,rRNA inh HTS RFP,Calb FLC,T cruzi inh,RanGTP-Imp inh,MLL AF4-AF9 inh,Vif TR-FRET
CNC(=S)NC1CC2CCCC(C1)N2CC(C)C (stereo not drawn),0.8,-4,nt,nt,nt,-14,2,5.0,nt,-7%
O=C(COC(=O)c1ccc(O)cc1)Nc1ccc(Cl)cc1C(=O)c1ccccc1,-0.1,-1,-43*,-31*,-7.6*,13,1,-3.6,3.8,15%
C[C@@H]1CC[C@@]2(NC1)O[C@H]1C[C@H]3[C@@H]4CC=C5C[C@@H](O)CC[C@]5(C)[C@H]4CC[C@]3(C)[C@H]1[C@@H]2C,0.5,-3,nt,nt,nt,79*,14,6.8,nt,1%
CCOC(=O)c1ccccc1NC(=O)c1c(O)[nH]c(=S)[nH]c1=O,-1.0,-9,15,-11,-3.0,-10,5,-0.8,-1.9,nt
O=Cc1c(C(=O)O)n(Cc2ccc(F)cc2Cl)c2ccccc12,0.3,6,-15,-5,5.1,7,-6,-2.3,-4.8,5%
CCCNC(=O)N1[C@H]2CC[C@@H]1C(C(=O)OC)=C(c1cc3ccccc3o1)C2,-0.2,-2,nt,nt,nt,-4,6,2.8,nt,nt
COC(=O)C1=C(c2ccc(OC(F)(F)F)cc2)C[C@@H]2CC[C@H]1N2C(=O)N1CCCCC1,0.5,-4,-25,-50,8.7,nt,nt,nt,2.5,nt
O=C1NC(=O)C(=Cc2ccc3c(c2)OCO3)C(=O)N1,-1.3,-3,21,14,0.0,5,-12,?,0.3,19%
COC(=O)C1=C(c2ccccc2)C[C@@H]2CC[C@H]1N2C(=O)NCc1ccc(C(F)(F)F)cc1,1.2,1,-33,-54,2.9,-12,-8,0.1,-1.5,nt
CC(O)(CS(=O)(=O)c1cccc(C(F)(F)F)c1)C(=O)Nc1ccc(C(F)(F)F)cc1 (stereo not drawn),0.6,3,-26,-33,8.3,-11,24,2.7,-90,2%
N#CC(C#N)=NNc1ccc(S(N)(=O)=O)cc1,1.4,-3,6,0,-6.1,4,-8,-5.2,6.5,21%
COCCCn1c(N)c(C(=O)NCCC(C)C)c2nc3ccccc3nc21,1.1,-2,nt,nt,nt,10,26,103*,nt,?
CCN(CCO)c1ccc(N=Cc2c(O)n(C)c(=S)[nH]c2=O)cc1,1.2,-9,8,-10,19,-4,-5,-19,-1.9,?
Cc1ccc(/C=C2/C(=O)NC(=O)N(CCc3ccc(F)cc3)C2=O)s1,-0.1,-1,nt,nt,nt,11,-4,5.8,nt,10%
O=C(O)CCCc1ccc(N(CCCl)CCCl)cc1,0.4,14,nt,nt,nt,9,-12,-0.3,0.3,?
CCN1CCN(c2ccc(NC(=O)C(C)C)cc2Cl)CC1,0.5,3,nt,nt,nt,?,8,3.2,nt,21%
Cc1ccsc1C(=O)C1CCCN(Cc2cc3ccccc3o2)C1 (stereo not drawn),0.3,-1,-41,-48,-8.4,11,45,3.0,4.3,14%
Cc1oc2ccc(OC(=O)N(C)C)cc2c1C(=O)OC(C)C,-0.1,-2,nt,nt,nt,107*,12,0.2,nt,6%
CCOP(=S)(OCC)c1ccc(N(C)C)cc1,0.0,-2,nt,nt,nt,-14,3,?,nt,4%
CCC(C)/C=C(C)/C=C/C1=CC2=C(Cl)C(=O)C(C)(OC(C)=O)C(=O)C2=CO1 (stereo not drawn),1.2,nt,nt,nt,nt,1,-28,-3.5,nt,25%
CNCC(O)c1cccc(OC(=O)c2ccccc2C)c1 (stereo not drawn),0.4,-4,nt,nt,nt,-17,nt,nt,nt,-1%
COc1ccccc1C(=O)C1CCCN(Cc2cnc(C)s2)C1 (stereo not drawn),-0.1,3,-5,-10,-0.7,5,19,-1.5,4.7,3%
CCN(CC)C(=O)Cn1cc(/C=C2\C(=O)NC(=O)N(c3ccccc3F)C2=O)c2ccccc21,-0.6,-12,16,12,0.4,-3,-16,5.8,1.0,-3%
CCC12CN3CCN(CC(C3)/C1=N/NC(N)=O)C2,0.2,nt,13,14,-0.8,-8,-9,2.2,-0.4,2%
O=c1cc(C2CCNCC2)[nH][nH]1,1.5,1,nt,nt,nt,16,-7,2.6,nt,2%
C[C@]12CCC3C(C(=O)C[C@H]4C[C@@H](O)CC[C@]34C)C1CCC2=O (stereo partly drawn),-0.7,2,-20,-17,8.8,nt,nt,nt,1.6,-5%
O=c1[nH]c(=S)n(C2CC2)c(O)c1/C=N/Nc1ccccc1,0.8,-5,nt,nt,nt,-21,9,-3.2,nt,nt
CN1C2CCC1CC(OC(=O)c1cc(Cl)cc(Cl)c1)C2 (stereo not drawn),0.9,1,nt,nt,nt,-4,25,-0.6,nt,15%
CCCCCCn1c(=O)c(C(=O)Nc2nnc(C)s2)c(O)c2ccccc21,0.7,-5,nt,nt,nt,-1,-14,-0.8,nt,-2%
CCOC(=O)C1CCN(Cc2ccc(Cl)nc2)CC1,0.3,1,12,9,-2.0,-4,-4,3.7,-2.1,-6%
C[C@H]1CCC/C=C/C2C[C@H](O)CC2[C@H](O)/C=C/C(=O)O1 (stereo partly drawn),2.8,99*,nt,nt,nt,nt,51,-1.3,nt,11%
O=S(=O)(NC1CCCC1)OCC(Cl)(Cl)Cl,-0.1,-2,10,3,5.9,-13,-3,1.5,2.0,nt
COc1ccc2c(C)c(CCC(=O)N3C[C@H]4C[C@@H](C3)c3cccc(=O)n3C4)c(=O)oc2c1,0.3,-2,1,7,3.6,-3,-1,4.3,0.1,nt
Cc1ccc(N=Cc2c(O)n(C)c(=O)n(C)c2=O)cc1,-2.1,nt,0,7,-0.9,1,-5,-5.0,6.2,nt
Nc1nnc(P(c2ccccc2)c2ccccc2)s1,0.6,-8,1,1,-0.5,0,-17,1.7,1.2,-2%
CN(C)C(=O)O/N=C(\N)COc1ccc(C(C)(C)C)cc1,-0.8,7,-18,-16,6.8,-2,44,-1.1,-16,8%
CN1C2c3ccccc3C3C4c5ccccc5C(C31)C(C2[N+](=O)[O-])N4C (stereo not drawn),0.5,-6,2,3,0.7,-2,11,4.7,2.9,-5%

# At a glance, part of the list above:
SMILES,Bfl-1 A1 inh,Beta apoptosis,rRNA inh HTS,rRNA inh HTS OD600,rRNA inh HTS RFP,Calb FLC,T cruzi inh,RanGTP-Imp inh,MLL AF4-AF9 inh,Vif TR-FRET
CN(C)C(=O)O/N=C(\N)COc1ccc(C(C)(C)C)cc1,-0.8,7,-18,-16,6.8,-2,44,-1.1,-16,8%
CN1C2c3ccccc3C3C4c5ccccc5C(C31)C(C2[N+](=O)[O-])N4C (stereo not drawn),0.5,-6,2,3,0.7,-2,11,4.7,2.9,-5%
